Sa RN4220 lethal = kills Staphylococcus aureus RN4220. S. aureus RN4220 growth, OD600, 16 h. inhibition, % (no concentration beside the values). actives 0.33% (n = 330,000). AID 1259311;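 active means z-score of -3 or lower and OD600 up to 0.18 on both plates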;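 further: plate controls were untreated cells for no effect and reference antibiotic for full effect; stock transfer was 100 nL into about 80 µL; one replicate is shown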
Bead autofluor = compound fluorescence in toxin protease inhibitor counterscreen; compound autofluorescence counterscreen, microsphere flow cytometry; active compounds read high; fluorescence intensity (test concentration not listed); actives 3.1% (n = 360,000);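 active means at least 3 SD above the mean of all compounds, about 16000 in these data; inconclusive means too few beads counted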;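 further: 100 nL of 1 mM stock went into each well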
BJeLR lethal = BJeLR cell viability loss | AID 1554 | BJeLR (HRASV12) viability, CellTiter-Glo ATP luminescence, 48 h; reference of the scale not given here | inhibition, % (test concentration not listed) | actives 0.17% (n = 300,000);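 active means replicate mean above 50%; inconclusive means above 50% but judged a plate artefact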;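 further: 50 nL library stock added to about 25 µL; numbers are from one replicate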
Sa ugtP lethal = growth inhibition of S. aureus ugtP deletion strain | S. aureus RN4220 ugtP deletion, OD600 growth, 16 h; some inactives read as strong as hits | growth inhibition, % (test concentration not listed) | actives 0.54% (n = 330,000);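 active means z-score under -3 and OD600 up to 0.15 on both plates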;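 further: plate controls were untreated wells for no effect and antibiotic for full effect; wells of about 80 µL received 100 nL stock; the first replicate is given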
Mtb hypoxia rep = reduces hypoxia-regulated biosensor signal in M. tuberculosis; M. tuberculosis hypoxia-regulated fluorescent reporter, fluorescence; fluorescence inhibition, % (no concentration beside the values); actives 0.1% (n = 300,000); AID 1159583;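 active means 35 to 45% if threefold the growth effect, above 45% if 1.5-fold the growth effect; inactive means the rest, general growth blockers included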;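 further: wells of about 50 µL received 100 nL stock; 0% = vehicle wells and 100% = reference inhibitor wells; whole bacteria with a GFP reporter of the hypoxia response; strong numbers were not always called active; many hits fall short of the cut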
PrP UTR inh = suppresses PrP 5' UTR mRNA reporter expression. AID 488862. cell-based PrP 5' UTR mRNA reporter, plate reader. inhibition, % (concentration not given with the values). actives 0.35% (n = 340,000);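 active means every replicate at 50% or more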;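 further: 0 = median of the neutral control wells; tested in H4 reporter cells; numbers are from one replicate; inactives centre near -14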
Mtb hypoxia rep growth = also measured in Mtb hypoxia rep; calls as there; growth inhibition, %; measured here: M. tuberculosis growth (absorbance);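 0% = vehicle and 100% = reference antibiotic; read after six days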
Numbers without * were called inactive; ? = inconclusive; · = no result given.

The line under a structure holds: Bead autofluor	BJeLR lethal	Mtb hypoxia rep	Sa RN4220 lethal	Mtb hypoxia rep growth	PrP UTR inh	Sa ugtP lethal
- COc1cccc(N(C(=O)c2ccco2)C(C(=O)NC2CCCC2)c2ccc(N(C)C)cc2)c1 (configuration not stated)
  3213	5	14	-12	10	-3	-8
- CCOC(=O)c1cnc2c(cnn2C)c1Cl
  3172	-5	4	11	0	-8	23
- O=C(N[C@H]1CP(=O)(Oc2ccccc2)O[C@H](COCc2ccccc2)[C@H]1O)C(Cl)(Cl)Cl (some centres not stated)
  3936	13	·	·	·	1	·
- Clc1ccccc1CN1CCN(/N=C/C=C\c2ccco2)CC1
  4313	2	·	·	·	-28	·
- COc1cccc(-c2nnc(NC(=O)c3ccc(S(=O)(=O)N(CC(C)C)CC(C)C)cc3)o2)c1
  4398	·	-6	100*	11	30	100*
- COC(=O)c1c(-c2ccc(Br)cc2)csc1NC(=O)Cc1ccc(OC)c(OC)c1
  2305	-2	·	-5.8	·	-13	0
- CCCc1ccc2oc(C(=O)N3CCN(CC(=O)NC(C)C)CC3)c(C)c2c1
  3826	9	-1	5.7	20	-3	4
- Nc1sc2c(c1C(=O)NC1CCS(=O)(=O)C1)CCC2 (configuration not stated)
  3947	5	·	1.3	·	-2	-6
- N=C1/C(=C\c2ccc(SCc3ccccc3)o2)C(=O)N=C2SC(CC(=O)N3CCOCC3)=NN12
  4946	14	8	4.7	15	-24	-3
- Cc1cc(-c2ccccc2)c2ccc(NC(=O)C(C)(C)C)nc2n1
  3503	-3	-8	2.8	-2	0	-1
- Cc1ccc(NC(=O)CC(O)(C(F)(F)F)C(F)(F)F)c(Br)c1
  6022	11	12	20	8	-22	3
- Cc1cccc(NS(=O)(=O)c2cc3c(cc2C)N(C)CCO3)c1
  5306	17	-7	2.4	-7	-9	0
- COc1ccc(CCNc2ncnc3cc(OC)c(OC)cc23)cc1OC
  4113	-2	-2	4.3	7	6	12
- O=C(CC1C(=O)NCCN1C(=O)Nc1ccccc1)Nc1cccc(C(F)(F)F)c1 (configuration not stated)
  3994	5	2	-0.5	3	-16	16
- O=C(C[C@@H]1NS(=O)(=O)OC2CCCCC21)c1ccccc1 (some centres not stated)
  3080	-7	·	·	·	-9	·
- Cc1cc(C)cc(OCC(=O)N/N=C/c2ccco2)c1
  4128	3	·	·	·	-11	·
- O=c1cc(O)c2c(=O)n(-c3ccccc3)c3c(c2o1)CCCCCC3
  9864	12	·	·	·	-16	·
- Cc1cc(C)c2cc(CN(CCCO)S(=O)(=O)c3ccccc3F)c(=O)[nH]c2c1
  3526	-4	-3	4.3	5	-12	2
- COC(=O)CSC1=C(C#N)C(c2ccc(C)cc2)C2=C(CCCC2=O)N1 (configuration not stated)
  2934	-3	0	-12	8	-16	-10
- O=C(OCc1ccccc1)N1CCCC1C=CCN1CCOCC1 (configuration not stated)
  ·	·	3	3.2	6	·	-4
- NS(=O)(=O)c1ccc(NC(=O)COC(=O)c2ccco2)cc1
  4621	-3	4	-1.8	9	-22	-11
- Cc1ccc(C(=O)N/C(=C/c2cccc([N+](=O)[O-])c2)C(=O)NCC2CCCO2)cc1 (configuration not stated)
  2797	0	-2	-2.0	-5	-23	2
- Cc1ccc(N2C(=O)CC(N(O)C3CC(=O)N(c4ccc(C)cc4)C3=O)C2=O)cc1 (configuration not stated)
  3830	-3	7	4.8	12	-10	-7
- CCc1nc(SCC(=O)NNC(=O)C2CCCCC2)c2ccccc2n1
  21748*	5	3	5.3	7	-14	-1
- CCOc1ccc(C(C)NC(=S)NC2CCCCC2)cc1OCC (configuration not stated)
  4508	-15	16	4.4	2	4	8
- COc1cc2nc(CN(CCC(C)C)Cc3nc4cc(OC)c(OC)cc4c(=O)[nH]3)[nH]c(=O)c2cc1OC
  4329	3	·	5.0	·	-18	5
- COc1ccc(CC(=O)Nc2cccc(SC)c2)cc1
  2184	-2	6	1.1	4	0	-9
- CCOC(=O)c1nncc(-c2ccccc2)n1
  4494	·	4	5.5	2	-23	0
- Cc1c(C(=O)c2cccc3ccccc23)c2cccc3c2n1[C@H](CN1CCOCC1)CO3
  5304	-3	·	·	·	-2	·
- O=c1c2ccc(Cl)cc2[nH]c(=S)n1CCCN1CCOCC1
  4348	2	9	8.5	14	-12	2

Compound profiles, as listed above. Order of screens: Bead autofluor	BJeLR lethal	Mtb hypoxia rep	Sa RN4220 lethal	Mtb hypoxia rep growth	PrP UTR inh	Sa ugtP lethal
Record of Cc1c(C(=O)c2cccc3ccccc23)c2cccc3c2n1[C@H](CN1CCOCC1)CO3 = 5304	-3	·	·	·	-2	·
Record of CCCc1ccc2oc(C(=O)N3CCN(CC(=O)NC(C)C)CC3)c(C)c2c1 = 3826	9	-1	5.7	20	-3	4

Going on with the list.
The line under a structure holds: Bead autofluor	BJeLR lethal	Mtb hypoxia rep	Sa RN4220 lethal	Mtb hypoxia rep growth	PrP UTR inh	Sa ugtP lethal
- CCN(CC)S(=O)(=O)c1ccc(C)c(NC(=O)CNc2cccc(S(=O)(=O)N3CCCC3)c2)c1
  ?	3	10	2.8	6	-9	0
- COc1ccc(S(=O)(=O)N2CCCCCC2)cc1C(=O)NCc1ccccc1Cl
  ?	·	-1	-1.7	-6	10	-6
- O=C(/C=C/Nc1ccc(S(=O)(=O)Nc2ncccn2)cc1)c1ccc(Cl)c(Cl)c1
  9764	6	9	-11	5	-12	-15
- COc1cc(C)c(C)cc1S(=O)(=O)N1CCCCC1c1cccnc1 (configuration not stated)
  4602	4	·	7.0	·	-2	8
- Cc1ccc(SCc2cn3cc(Cl)ccc3n2)cc1
  6541	10	2	2.7	6	-11	1
- O=C(Nc1cccc(O)c1)c1ccccc1
  10979	-6	4	3.4	8	-25	-7
- CC1CCCCN1S(=O)(=O)c1ccc(C(=O)Nc2nnc(C3CC3)o2)cc1 (configuration not stated)
  6225	-7	-1	51	6	-20	22
- COc1ccc(NC(=O)CSc2nnc(Cn3cnc4ccccc43)o2)cc1
  4377	1	12	2.3	6	-5	9
- O=C(O)CC1C(=O)NCCN1Cc1cccs1 (configuration not stated)
  2708	-7	7	0.8	-1	-14	2
- Cc1ccc(OCCNC(=O)Cn2cnc3c(=O)n(C)c(=O)n(C)c32)cc1C
  22531*	-2	-1	-0.2	2	-3	-1
- O=C(CN(C(=O)C1COc2ccccc2O1)c1ccccc1)NCC1CCCO1 (configuration not stated)
  12398	-7	3	4.4	2	-9	9
- COc1ccccc1/C=C/C1(C(=O)NC2CCCC2)CC(=O)N1c1ccccc1 (configuration not stated)
  5101	9	12	4.6	2	-2	4
- O=C(NCc1ccncc1)c1cc(-c2ccc(Cl)cc2)oc1C(F)(F)F
  ·	7	5	9.9	-5	-11	-12
- O=C(COC(=O)c1cc(Cl)ccc1O)Nc1cc(C(F)(F)F)ccc1N1CCOCC1
  3745	·	7	3.2	12	-11	1
- Cc1ccc(Cl)cc1Nc1nc(-c2sc(NC(=O)C(C)(C)C)nc2C)cs1
  3921	7	7	-4.7	6	-17	-1
- CCOc1ccccc1CNC(=O)Cn1ccc2cc(S(=O)(=O)N3CCC(C)CC3)ccc21
  5713	6	5	-5.0	1	-21	-4
- CCc1nnc(NC(=O)CN2CCN(Cc3ccccc3C)CC2)s1
  ·	2	7	5.4	-4	-15	5
- O=C(COC(=O)c1cccc(S(=O)(=O)N2CCOCC2)c1)Nc1ccc2c(c1)OCO2
  ·	3	·	2.5	·	-27	3
- Cc1cccc(C)c1OCc1cc(C(=O)NCc2ccc(Cl)s2)no1
  5320	-10	3	-3.7	-3	-41	2
- COc1ccc(Nc2nc(-c3cccs3)cs2)cc1
  ·	0	20	-0.3	15	·	4
- CCOc1ccc(-c2c(C(=O)N/N=C/c3ccccc3)nnn2-c2nonc2N)cc1
  5341	-2	·	·	·	-6	·
- Cc1ccc(S(=O)(=O)NCCC(=O)N2CCOCC2)cc1C
  5392	4	1	3.0	-2	-13	3
- COc1ccc(N(CC(=O)N2CCCCCC2)S(C)(=O)=O)cc1Cl
  3887	13	14	7.2	2	-20	13
- CN(Cc1ccsc1)C(=O)CCc1nnc(CCCc2ccccc2)o1
  3335	-9	-1	4.5	-5	·	4
- O=C(CC12CC3CC(CC(C3)C1)C2)NCC(c1ccc(F)cc1)N1CCOCC1 (configuration not stated)
  5394	-1	5	15	6	-36	-2
- Cc1cnc(NC(=O)Cn2cnc3c2c(=O)n(C)c(=O)n3C)s1
  5517	14	8	4.2	6	·	-2
- COC(=O)C(C(=O)OC)C(C[N+](=O)[O-])c1ccc(OC)c(OC)c1 (configuration not stated)
  3283	-4	-3	4.8	14	-9	-2
- O=C(NN1C(=O)c2ccccc2C1=O)c1ccc2c(c1)C(=O)N(CC1CCCO1)C2=O (configuration not stated)
  4946	-6	10	4.6	9	-43	-5
- O=[N+]([O-])c1cc(-c2cnc3ccccc3n2)ccc1Oc1ccc(Cl)cc1
  2231	-2	-1	-10	-1	-37	-16
- COc1ccc2[nH]cc(C3N4CC5(C)CN3CC(C)(C4)C5=O)c2c1 (configuration not stated)
  7931	4	4	2.8	7	17	2

In the list so far, 2 contain bromine:
The line under a structure holds: Bead autofluor	BJeLR lethal	Mtb hypoxia rep	Sa RN4220 lethal	Mtb hypoxia rep growth	PrP UTR inh	Sa ugtP lethal
- COC(=O)c1c(-c2ccc(Br)cc2)csc1NC(=O)Cc1ccc(OC)c(OC)c1
  2305	-2	·	-5.8	·	-13	0
- Cc1ccc(NC(=O)CC(O)(C(F)(F)F)C(F)(F)F)c(Br)c1
  6022	11	12	20	8	-22	3

(listing goes on)
The line under a structure holds: Bead autofluor	BJeLR lethal	Mtb hypoxia rep	Sa RN4220 lethal	Mtb hypoxia rep growth	PrP UTR inh	Sa ugtP lethal
- COC(=O)c1c(NC(=O)CN2CCOCC2)sc2c1CCC(C)C2 (configuration not stated)
  2609	-5	·	-0.1	·	-60	2
- C=CCNC(=O)C1CCC(=O)N1S(=O)(=O)c1ccc(C)cc1 (configuration not stated)
  ·	6	7	6.9	-3	1	14
- NS(=O)(=O)c1cccnc1Nc1cccc(Cl)c1Cl
  2789	6	·	-3.7	·	-6	6
- O=C(NC(=S)NNC(=O)c1cnccn1)c1ccc(F)cc1
  4831	10	1	8.3	-5	-20	-7
- CCN1CCN(c2cc(C)c3cc(NC(=O)c4ccc(Br)o4)ccc3n2)CC1
  8927	-4	3	7.4	16	-21	-1
- Cc1cc(C)c(S(C)(=O)=O)c(Oc2cccc(C(F)(F)F)c2)n1
  3382	3	18	3.6	3	0	4
- CC1(C)OC2C(CO)OC(n3ccc(=O)[nH]c3=O)C2O1 (configuration not stated)
  ·	·	5	3.9	6	·	-2
- CC(=O)O[C@@H]1[C@@H](OC(C)=O)[C@H](n2ccc3cc([N+](=O)[O-])ccc32)OC[C@@H]1OC(C)=O
  6405	0	-1	4.5	5	4	-1

Copied from the results shown (2 entries):
The line under a structure holds: Bead autofluor	BJeLR lethal	Mtb hypoxia rep	Sa RN4220 lethal	Mtb hypoxia rep growth	PrP UTR inh	Sa ugtP lethal
- CC1(C)OC2C(CO)OC(n3ccc(=O)[nH]c3=O)C2O1 (configuration not stated)
  ·	·	5	3.9	6	·	-2
- CC(=O)O[C@@H]1[C@@H](OC(C)=O)[C@H](n2ccc3cc([N+](=O)[O-])ccc32)OC[C@@H]1OC(C)=O
  6405	0	-1	4.5	5	4	-1

Assay outcomes from PubChem BioAssay.
